High-throughput results deposited in PubChem by several laboratories.
LANA-H2A inh: blocks KSHV LANA binding to histone H2A/H2B; Q9QR71; cell-free LANA-H2A/H2B peptide, fluorescence polarization; inhibition, % (no concentration beside the values); hit rate 0.6% among 320,000; in the data active means inhibition mostly above about 10%, no sharp cut-off; inactive means mostly below about 6.7%;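 further: stock transfer was 7.5 nL into about 10 µL; 0% = median of vehicle wells and 100% = median of positive control wells; one replicate is shown; the record names a cut of 25% in any replicate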
Target sequence (Q9QR71 whole entry, looked up): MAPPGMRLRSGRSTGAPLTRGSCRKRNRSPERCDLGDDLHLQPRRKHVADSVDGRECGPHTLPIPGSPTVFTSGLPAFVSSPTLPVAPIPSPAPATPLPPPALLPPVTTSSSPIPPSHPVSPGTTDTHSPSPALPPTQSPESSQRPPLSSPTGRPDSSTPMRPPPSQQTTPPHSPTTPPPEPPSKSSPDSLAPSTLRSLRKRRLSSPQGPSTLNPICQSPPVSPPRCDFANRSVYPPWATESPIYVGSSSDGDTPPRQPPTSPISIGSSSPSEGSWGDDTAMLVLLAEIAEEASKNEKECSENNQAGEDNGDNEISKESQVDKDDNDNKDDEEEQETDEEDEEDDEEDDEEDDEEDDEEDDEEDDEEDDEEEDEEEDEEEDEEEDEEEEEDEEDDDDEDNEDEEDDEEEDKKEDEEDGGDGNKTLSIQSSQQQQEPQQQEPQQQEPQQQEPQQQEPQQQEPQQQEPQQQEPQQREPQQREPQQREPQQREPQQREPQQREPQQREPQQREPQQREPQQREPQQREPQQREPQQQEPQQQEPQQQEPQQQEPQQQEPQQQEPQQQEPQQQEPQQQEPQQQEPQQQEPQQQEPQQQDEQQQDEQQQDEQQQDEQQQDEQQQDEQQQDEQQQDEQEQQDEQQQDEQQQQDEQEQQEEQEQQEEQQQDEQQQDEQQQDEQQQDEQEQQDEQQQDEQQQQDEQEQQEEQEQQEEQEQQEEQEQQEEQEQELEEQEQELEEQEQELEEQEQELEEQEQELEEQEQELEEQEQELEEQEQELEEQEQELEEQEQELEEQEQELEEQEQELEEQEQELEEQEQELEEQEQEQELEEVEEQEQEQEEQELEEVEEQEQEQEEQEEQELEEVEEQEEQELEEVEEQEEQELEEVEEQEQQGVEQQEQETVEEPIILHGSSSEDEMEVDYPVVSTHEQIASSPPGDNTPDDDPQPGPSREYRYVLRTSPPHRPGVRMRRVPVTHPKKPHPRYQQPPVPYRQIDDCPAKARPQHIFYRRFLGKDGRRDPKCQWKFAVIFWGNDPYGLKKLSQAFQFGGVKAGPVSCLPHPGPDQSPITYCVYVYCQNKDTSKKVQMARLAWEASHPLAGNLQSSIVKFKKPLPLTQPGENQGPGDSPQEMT
Beta apoptosis: beta cell apoptosis inhibition. INS-1E cytokine-induced death, ATP luminescence, 48 h; percent of positive-control rescue, neutral wells zero. hit rate 0.8% among 300,000. protection from apoptosis, % (test concentration not listed). AID 435005;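 active means all replicates at 75% or more, or half of them and the mean; inconclusive means half reach 75% but not the mean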;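 further: 0% = cytokine-treated negative control wells and 100% = positive control rescue; higher means more ATP so stronger rescue from cytokine killing; wells of about 40 µL received 100 nL stock; the first replicate is given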
B2AR ag: human beta-2 adrenergic receptor agonism by FAP. P07550. Am2.2-beta2AR cells, FAP receptor internalization, flow cytometry; reference of the scale not given here. response, % (concentration not given with the values). hit rate 0.43% among 340,000;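 active means response above a set limit, near 3 SD of response in nonfluorescent compounds, cut at about 42% in these data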;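 further: stock transfer was 100 nL into about 11 µL; a reference agonist was the positive control; negative values mostly stem from fluorescent compounds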
T cruzi inh: blocks replication of Trypanosoma cruzi. hit rate 1.4% among 300,000. T. cruzi beta-gal in NIH3T3, luminescence, 90 h. inhibition, % (test concentration not listed);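 active means mean inhibition across valid replicates above about 55%, limit read from the data; inconclusive means mean below that limit but half or more replicates reach it; inactive means mean below it, under half of replicates reach it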;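 further: signal also drops with host cell toxicity which is not excluded here; 0% = plate median of DMSO wells and 100% = zero luminescence signal; higher percent means less beta-gal luminescence so fewer parasites; stock transfer was 50 nL into about 50 µL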
Calb FLC: affects C. albicans growth with fluconazole | growth inhibition, % (concentration not given with the values) | AID 1979 | C. albicans CaCi-2 (fluconazole-resistant clinical isolate) + fluconazole, Alamar Blue growth, 48 h | hit rate 0.57% among 300,000;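 active means most replicates above 75%; inconclusive means exactly half above 75%; inactive means most below 75%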;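 further: all wells also contain fluconazole at 8 µg/ml as a sub-toxic cotreatment; 0% = median of DMSO wells and 100% = median of geldanamycin control wells; wells of about 8 µL received 7.5 nL stock; the first replicate is given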
Ecoli rRNA inh: inhibitors of bacterial rRNA selective over humanized ribosomes; E. coli WT GFP vs humanized-ribosome RFP mutants, fluorescence, 24 h; hits give low values; DMSO median 0, no signal -100; GFP signal change (wild-type ribosome), % (no concentration beside the values); hit rate 1.6% among 350,000;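 active means significant combined selectivity score with lowered wild-type GFP, culture density cut under 30%, mutant RFP and density less affected; inactive means any of these conditions unmet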; further: one replicate is shown; some compounds called inactive have numbers as strong as hits
ALR H2O2 inh: blocks human ALR sulfhydryl oxidase activity; P55789; purified ALR, DTT oxidation, H2O2 HRP-luminol luminescence; inhibition, % (concentration not given with the values); hit rate 3.8% among 290,000;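 active means mean and each replicate at 75% or more; inconclusive means only one of the two met; inactive means neither met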;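 further: stock transfer was 7.5 nL into about 7.5 µL; 0% = neutral wells and 100% = wells with inactivated enzyme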
Bfl-1 A1 inh: inhibitors of the anti-apoptotic protein A1, read as caspase activation. MEF A1-2A-BIM cells, Caspase-Glo 3/7 luminescence, 3 h; percent of clofoctol response, vehicle zero. caspase activation, % (concentration not given with the values). hit rate 0.066% among 330,000. AID 2462;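 active means over half of replicate activation scores above 10%, or exactly half above 10 with the replicate mean above 10; inconclusive means replicate mean below 10 yet half the replicates above 10; inactive means over half of replicates below 10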;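 further: wells of about 30 µL received 50 nL stock; many hits fall short of the cut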
Ecoli rRNA inh OD600: also measured in Ecoli rRNA inh; calls as there; OD600 change, %; measured here: OD600 growth;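 optical density of the mix in the first replicate; 0 = DMSO median and -100 = no signal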
Ecoli rRNA inh RFP: also measured in Ecoli rRNA inh; calls as there; RFP signal change, %; measured here: RFP humanized mutant strains;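 first replicate; 0 = DMSO median and -100 = no signal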
Starred values were filed as active, the others as inactive; ? = inconclusive; . = no result given; & = joins results of further samples.

mol	LANA-H2A inh	Beta apoptosis	B2AR ag	T cruzi inh	Calb FLC	Ecoli rRNA inh	Ecoli rRNA inh OD600	Ecoli rRNA inh RFP	ALR H2O2 inh	Bfl-1 A1 inh
O=C1C(=O)c2ccccc2C(O)=C1c1cccc([N+](=O)[O-])c1	3.7	6.0	-3.5	-3.1	53.4	-24.4*	-6.4*	-7.9*	15.3	-1.1
Cc1c(CCC(=O)NCCCCCC(=O)O)c(=O)oc2cc3occ(-c4ccccc4)c3cc12	1.5	-6.5	0.8	-3.0	7.2	-16.0	-10.7	1.8	-2.1	-0.4
CCc1ccc(NC(=O)CSCc2ccc(C(=O)O)cc2)cc1	0.7	-4.7	18.9	-0.1	5.9	-4.9	-0.8	-3.8	-7.4	-0.2
CCN1C(=O)[C@H]2[C@@H](c3ccc(Cl)cc3)N3C(=O)CN(CC4CC4)C(=O)[C@@]3(C)[C@H]2C1=O	0.7	4.6	0.2	12.0	12.2	3.2	2.0	-1.2	-0.9	-2.1
CNCCOc1ccccc1C(C)(C)C	-7.4	-4.8	4.5	5.1	?	.	.	.	-2.1	.
Cc1ccc(OCC(=O)NNC(=O)[C@@H]2CCCC[C@@H]2C(=O)O)c(Br)c1	5.6	-4.0	-10.5	.	-15.0	2.7	0.3	2.7	-11.0	-0.3
Cc1ccc(S(=O)(=O)N2CCC(C(=O)Nc3cc(C(F)(F)F)ccc3N3CCOCC3)CC2)cc1C	0.0	12.7	-0.6	14.2	6.5	1.4	-8.1	0.3	1.0	0.3
COc1ccc2c(c1)oc1c(SCc3nc4ccccc4[nH]3)nc(C)nc12	3.1	8.4	21.6	.	.	-13.2	-18.5	-7.2	-4.6	-0.7
CCN1CCSc2ccc(C(=O)NCc3ccc(OC(C)C)cc3)cc21	-0.3	-4.2	-12.3	37.3	-2.1	-3.5	-14.1	-7.8	30.0	-0.8
CN(CCc1ccccn1)C(=O)CCC1CCCN(Cc2ccccc2OC(F)F)C1 (centres undefined)	-1.7	.	-3.4	37.1	-8.8	-4.3	-1.0	-2.9	-0.8	0.1

Additional results follow:
mol	LANA-H2A inh	Beta apoptosis	B2AR ag	T cruzi inh	Calb FLC	Ecoli rRNA inh	Ecoli rRNA inh OD600	Ecoli rRNA inh RFP	ALR H2O2 inh	Bfl-1 A1 inh
Cc1nonc1CN(C)C(=O)CC1C(=O)NCCN1Cc1ccccc1C(F)(F)F (centres undefined)	4.2	-2.1	0.3	-1.8	3.9	7.9	6.2	-0.9	-0.8	-0.8
O=C(NCC1CCCO1)C1CC(=O)N(c2ccccc2)C1 (centres undefined)	4.2	-0.9	12.8	-11.1	1.5	0.3	7.7	-3.8	.	-0.1
CCCCOc1ccc(-c2csc(N)n2)cc1[N+](=O)[O-]	-3.9	-0.5	-5.1	9.2	4.3	.	.	.	69.6	-0.2
O=C(Nc1nc(-c2cccc(Br)c2)cs1)Oc1ccccc1	0.1	-14.3	0.7	1.5	-35.1	4.7	-0.5	-1.4	-8.7	-0.5
O=C(OCCOc1ccccc1F)c1cccc(S(=O)(=O)N2CCOCC2)c1	-5.5	-4.1	-1.4	.	.	6.6	8.3	-0.2	.	-0.1
O=C1CCC([N+](=O)[O-])C(c2ccccc2C(F)(F)F)N1 (centres undefined)	-1.0	-9.4	-1.5	-2.6	3.8	7.9	16.6	4.7	-0.5	-1.1
CCc1cccc(NC(=O)c2ccc(Br)o2)c1	-5.3	-0.8	-2.8	-6.9	-2.9	.	.	.	1.3	-4.9
CC(=O)c1c(C)[nH]c(C(=O)Nc2cc(S(=O)(=O)N3CCCCC3)ccc2C)c1C	-3.3	-5.1	18.8	.	.	8.3	-2.7	2.6	.	1.7
CC(=O)Nc1ccc(NC(=O)C(C)OC(=O)CCC(=O)c2ccc(F)cc2)cc1 (centres undefined)	-2.1	-0.6	3.6	-5.1	-1.5	-3.7	0.3	-1.5	-1.7	0.1
CCCCn1c(N)c(N(CC)C(=O)c2ccc(C#N)cc2)c(=O)[nH]c1=O	0.5	-2.3	-0.5	3.2	-0.4	2.9	8.7	-1.5	-2.9	0.0

Later entries:
mol	LANA-H2A inh	Beta apoptosis	B2AR ag	T cruzi inh	Calb FLC	Ecoli rRNA inh	Ecoli rRNA inh OD600	Ecoli rRNA inh RFP	ALR H2O2 inh	Bfl-1 A1 inh
COc1ccccc1OCCNC(=O)c1ccccc1C	-0.5	2.3	-4.5	-16.1	28.1	.	.	.	-2.6	0.7
O=C(CC1CCCC1)NCCS(=O)(=O)N1CCN(c2ccccc2F)CC1	3.0	.	-5.5	-12.3	10.3	-0.6	-5.2	-1.5	-3.1	0.2
COCCNc1nc2c(c(=O)n(Cc3ccc(OC)cc3)c(=O)n2C)n1C	-3.1	9.5	-0.6	-4.0	-8.0	.	.	.	7.4	0.4
COCCCN1C(=O)C(=O)/C(=C(/O)c2ccc3c(c2)CC(C)O3)C1c1cccnc1 (centres undefined)	-12.2&-6.6	-1.1	0.9	-0.9	0.9	.	.	.	-10.8	0.7
O=C(NC(=S)Nc1ccccc1N1CCOCC1)c1ccc([N+](=O)[O-])cc1	-2.2	2.3	-2.8	2.5	2.0	.	.	.	.	0.8
CC(C)C(C)(C#N)NC(=O)CSc1nnc(-c2ccncc2)n1Cc1ccccc1 (centres undefined)	-5.6	2.5	-0.4	13.1	9.0	.	.	.	.	0.7
Cc1ccccc1NC(=S)C1=C(O)c2sccc2N(C)S1(=O)=O	7.1	-4.4	10.7	-3.5	-5.2	.	.	.	6.4	0.0

Compounds shown so far containing four or more nitrogen atoms (6):
mol	LANA-H2A inh	Beta apoptosis	B2AR ag	T cruzi inh	Calb FLC	Ecoli rRNA inh	Ecoli rRNA inh OD600	Ecoli rRNA inh RFP	ALR H2O2 inh	Bfl-1 A1 inh
COc1ccc2c(c1)oc1c(SCc3nc4ccccc4[nH]3)nc(C)nc12	3.1	8.4	21.6	.	.	-13.2	-18.5	-7.2	-4.6	-0.7
Cc1nonc1CN(C)C(=O)CC1C(=O)NCCN1Cc1ccccc1C(F)(F)F (centres undefined)	4.2	-2.1	0.3	-1.8	3.9	7.9	6.2	-0.9	-0.8	-0.8
CCCCn1c(N)c(N(CC)C(=O)c2ccc(C#N)cc2)c(=O)[nH]c1=O	0.5	-2.3	-0.5	3.2	-0.4	2.9	8.7	-1.5	-2.9	0.0
COCCNc1nc2c(c(=O)n(Cc3ccc(OC)cc3)c(=O)n2C)n1C	-3.1	9.5	-0.6	-4.0	-8.0	.	.	.	7.4	0.4
O=C(NC(=S)Nc1ccccc1N1CCOCC1)c1ccc([N+](=O)[O-])cc1	-2.2	2.3	-2.8	2.5	2.0	.	.	.	.	0.8
CC(C)C(C)(C#N)NC(=O)CSc1nnc(-c2ccncc2)n1Cc1ccccc1 (centres undefined)	-5.6	2.5	-0.4	13.1	9.0	.	.	.	.	0.7

Only part of the results is shown; count on the stated rates, not on these rows.
